High-throughput results (PubChem)
miR-21 FLuc = miR-21 reporter, rising signal; Potency, µM (highest dose often 38.3 µM), inactives show top-dose reporter change, positive = more light; HeLa miR-21 FLuc reporter, luciferase, 48 h; 340,000 tested, under 10 active; active = well fitted rising curve with a large enough effect; inconclusive = small, poorly fitted or top-dose-only effect; inactive = no such curve, though single readings can be large or run the other way;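 note: % of control where 0% means no effect; miR-21 action dims this reporter so a rising signal means less miR-21 action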
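Using DMEM plus 10% FBS, HeLa miR-21-FLuc cells are incubated with test compounds (final up to about 40uM) for 48 hours; firefly luciferase signal is then imaged following reagent-mediated lysis.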
GLA inh pH 4.5 = inhibitors of human alpha-galactosidase A at pH 4.5 | activity change, negative = inhibition, % at 105 µM | purified enzyme, 4-MU-alpha-Gal fluorescence, pH 4.5 | AID 1467 | P06280 | 230,000 tested, under 10 active; inconclusive = small, poorly fitted or top-dose-only inhibition, or a rising curve; inactive = flat fitted curve, though single readings scatter; no compound was filed as active;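 note: 0% = full activity with enzyme and -100% = basal without enzyme; dose as in the result columns while the protocol names 77 µM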
Target sequence (P06280 whole entry, looked up): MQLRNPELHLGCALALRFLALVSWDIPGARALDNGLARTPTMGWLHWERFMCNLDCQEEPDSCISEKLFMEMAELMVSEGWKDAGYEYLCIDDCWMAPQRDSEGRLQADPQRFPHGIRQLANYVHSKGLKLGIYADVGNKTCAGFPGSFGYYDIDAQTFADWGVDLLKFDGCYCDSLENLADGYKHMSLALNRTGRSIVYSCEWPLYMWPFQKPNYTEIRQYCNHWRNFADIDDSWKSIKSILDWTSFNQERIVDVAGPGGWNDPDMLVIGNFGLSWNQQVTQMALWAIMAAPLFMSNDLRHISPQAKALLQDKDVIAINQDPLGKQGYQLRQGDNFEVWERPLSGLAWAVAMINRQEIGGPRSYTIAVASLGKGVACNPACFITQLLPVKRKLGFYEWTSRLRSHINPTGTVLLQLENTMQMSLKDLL
Rango dissoc inh = prevents RanGTP from dissociating the Rango-importin beta complex. O95149+P62826. Biochemical FRET Rango-importin beta, RanGTP-induced dissociation. Potency, µM (highest dose often 46.1 µM), inactives show top-dose activity change, negative = inhibition. hit rate 0.071% among 340,000. AID 540253; active means falling FRET ratio curve, often poorly fitted, with flat reads before Ran was added; inconclusive means other falling curves, or compound fluorescence or quenching; inactive means flat or rising ratio curve;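 note: potency is the fitted concentration of half-maximal effect; % of control where 0% means no effect; nearly all actives have a fitted effect of over 45% in size; -100% = wells without RanGTP and RCC1; the record marks most hits as doubtful in a second field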
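Two FRET readings bracket the reaction: one 5 min after compound meets Rango–importin beta, another 45 min after RanGTP-RCC1 (0.6 uM Ran, 0.2 uM RCC1, 2 mM GTP) is added. Only the second defines inhibition.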
Rango-impB inh = inhibitors of Rango-importin beta complex formation. Potency, µM (top dose mostly 92.2 µM), for the others: at the highest dose inhibition of complex formation. Q14974. hit rate 0.031% among 340,000. Rango CFP/YFP FRET sensor + importin beta, 45 min; active = rising FRET ratio curve, often small or poorly fitted; inconclusive = mostly compound fluorescence or quenching in the first reads; inactive = flat curves in all reads;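 note: potency is the fitted concentration of half-maximal effect; 0% = DMSO wells and 100% = buffer wells lacking importin beta; nearly all actives have a fitted effect of over 15% in size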
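FRET biosensor (snurportin 1 IBB flanked by EYFP and cerulean), 50 nM, with compound 5 min, then 0.125 microM importin beta in PBS, 1 mM DTT, 0.02% Tween-20, 0.1% BSA. CFP/YFP ratio read after 45 min at room temperature; pre-read flags interference.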
* hit, by the source's call; u = inconclusive; x = no result given; & = joins results of further samples. An excerpt, so the mix of outcomes need not match the whole.

SMILES	miR-21 FLuc	GLA inh pH 4.5	Rango dissoc inh	Rango-impB inh
O=C(/C=C/c1ccc(Cl)cc1Cl)OCC(=O)N1CCCC1	x	x	u	3.5%
COc1cc(/C=N/Nc2nc(=O)[nH]nc2C)ccc1O	-6%	-6	-4%	u
CCCCn1c(N)c(N(Cc2ccccc2OC)C(=O)C(C)Oc2ccc(Cl)cc2)c(=O)[nH]c1=O (stereo not given)	-2%	x	12%	-0.2%
Cc1cc(=O)nc2c3ccccc3n(CC(=O)Nc3ccccc3Br)n12	6%	-5	3%	0.5%
COc1ccc(Cl)cc1NC(=O)c1ccoc1C	-2%	3	4%	0.1%
CCN(CC1COc2ccccc2O1)C(=O)c1ccc(Cl)c(S(=O)(=O)N2CC(C)OC(C)C2)c1 (stereo not given)	x	x	-5%	1.6%
Nn1cnnc1N/N=C/c1ccc(Cl)c([N+](=O)[O-])c1	5%	-11	11%	3.1%
CCCSc1ccc(C(=O)Nc2ccc(F)cc2F)cn1	-55%	1	-9%	-0.3%
COc1ccc(NC(=S)Nc2cccc([N+](=O)[O-])c2)cc1	-10%	-2	15%	-3.6%
O=C(CCN1C(=O)c2ccccc2C1=O)Nc1ccc(-c2nc3ccccc3s2)cc1	-72%	-1	-28%	1.7%
CC(C)(C)NC(=O)/C(=C\c1cccnc1)NC(=O)c1ccco1	6%	6	-18%	4.3%
COc1ccc([C@H]2Cc3cccc(O)c3C(=O)O2)cc1O	x	x	-23%	3.4%
CS(=O)(=O)N1CCN(C(=O)CSc2ccccc2)CC1	-3%	x	-2%	-0.9%
Cc1nc2ccc(NS(=O)(=O)c3ccc(F)c(F)c3F)cc2s1	x	x	2%	u
O=C(COC(=O)c1ccc(Br)c(S(=O)(=O)N2CCOCC2)c1)NC1CC1	x	x	-9%	-1.3%

Record cards, from the list above.
CCCSc1ccc(C(=O)Nc2ccc(F)cc2F)cn1 in the list: miR-21 FLuc = -55%; GLA inh pH 4.5 = 1; Rango dissoc inh = -9%; Rango-impB inh = -0.3%
Cc1cc(=O)nc2c3ccccc3n(CC(=O)Nc3ccccc3Br)n12 in the list: miR-21 FLuc = 6%; GLA inh pH 4.5 = -5; Rango dissoc inh = 3%; Rango-impB inh = 0.5%

(list continues)
SMILES	miR-21 FLuc	GLA inh pH 4.5	Rango dissoc inh	Rango-impB inh
CN(C)CCNC(=O)C(=O)Nc1cc2c3c(c1)CCN3C(=O)CC2	2%	x	15%	4.2%
Cc1ccc(NC(=O)CSc2nnc(Cn3cnc4ccccc43)o2)cc1	-4%	4	10%	0.2%
O=C(NCc1ccccc1F)C1CCCN1S(=O)(=O)c1ccc(Cl)cc1 (stereo not given)	0%	x	-14%	0.8%
CC(C)(C)NC(=O)C(=O)N/N=C/c1cccs1	-42%	2	-9%	0.9%
CCn1c(SCC(=O)NCc2cccs2)nnc1-c1ccncc1	-1%	3	4%	0.9%
CC(C)Cn1c(-c2ccccc2)nc2ccccc2c1=O	14%	-11	-2%	-1.0%
Cc1ccc(C)c2[nH]c(=O)c(CCNC(=O)C(C)(C)C)cc12	-7%	0	-10%	3.7%
COc1ccc(NC(=S)Nc2cccc(C)n2)cc1	-45%	3	8%	4.5%
COc1ccc2[nH]c(=O)c(CN(Cc3cccs3)S(=O)(=O)c3cccc4nsnc34)cc2c1	11%	-11	-10%	-5.4%
O=C(COc1ccccc1)NC1C(=O)N2C(C(=O)O)=C(Cl)CSC12 (stereo not given)	-4%	x	-3%	-0.4%
O=S1(=O)C=C(N2CCCCC2)c2ccccc21	-4%	-4	-26%	u
Cc1ccc2c(c1)cc1c(=O)n(CC(=O)NCc3ccccn3)nc(C)n12	1%	x	1%	0.4%
CCN1CCN(C(=O)c2cc3ccc(OC)cc3[nH]2)CC1	-55%	x	4%	4.4%
C[C@@H]1CN([C@@H](C)CO)C(=O)c2cc(NC(=O)C3CC3)ccc2O[C@H]1CN(C)C	x	x	-2%	-3.3%
COc1ccc(CNC(=O)[C@]2(C)CCC[C@@]3(C)C4CC[C@@]5(C)C[C@]4(CCC32)CC5=O)cc1 (stereo not given in full)	x	x	5%	0.5%
Cc1ccc(NC(=O)Cn2cnc(C(=O)Nc3ccc(C)c(C)c3)n2)cc1C	x	x	7%	3.7%
Cn1sc(NC(=O)c2ccccc2Cl)nc1=O	-12%	2	1%	1.2%
O=C(NC1CCS(=O)(=O)C1)c1cccs1 (stereo not given)	0%	x	-2%	-0.5%
O=C(CSc1ccc2nnc(-c3ccc(Cl)cc3)n2n1)N1CCCC1	-3%	6	14%	7.4%
Cc1c(C(=O)NCc2ccccc2Cl)oc2c1C(=O)CCC2	-22%	1	x	x
COc1ccc(CN(Cc2cccn2C)C(=O)c2cc3cc(OC)ccc3[nH]2)cc1	0%	-12	36%	0.5%
O=C(NCCc1ccc(F)cc1)N[C@@H](Cc1ccccc1)C(=O)O	-2%	x	2%	-0.1%
CC(C)(C)OC(=O)N1CCC(C(=O)Nc2cccc(C(=O)NC3CC3)c2)CC1	x	x	-13%	1.4%
COc1ccc2c(c1)C1NC(=S)NC(C)(O2)C1C(=O)Nc1ccccc1C (stereo not given)	-1%	3	u	3.6%
COc1ccc(CCNC(=O)CCCCC(=O)NCCc2ccc(OC)cc2)cc1	1%	x	-1%	0.9%
CCN(C[C@H]1N[C@@](CC)(C(=O)OC)[C@H]2C(=O)N(Cc3ccccc3)C(=O)[C@@H]12)S(=O)(=O)c1ccc(-c2ccccc2)cc1	x	x	-4%	0.3%
O=C(CCSCc1ccccc1Cl)N1CCN(c2cccc(Cl)c2)CC1	0%&-6%	-13	0%	-0.4%
CCOc1ccc(N2C(=O)CC(NCc3ccc(S(N)(=O)=O)cc3)C2=O)cc1 (stereo not given)	1%	0	0%	-0.1%
Cc1nn(Cc2ccccc2)c(C)c1C(=O)OCC(=O)c1cc(C)n(C2CC2)c1C	1%	-7	-5%	3.7%
COCCNC(=O)/C(C#N)=C/c1ccc(N2CCOCC2)o1	-12%	-21	u	u
O=C(NCCCN1CCOCC1)c1ccc(CS(=O)(=O)c2cccc(C(F)(F)F)c2)o1	-1%	-12	10%	0.6%
Cc1ccc(S(=O)(=O)NCC2CCC(C(=O)NCc3ccc4c(c3)OCO4)CC2)cc1 (stereo not given)	-4%	12	-3%	-4.1%
COc1ccc(OC)c(Cc2nnc(CCC(=O)NC(C3CC3)C3CC3)o2)c1	0%	2	-3%	-3.9%
O=C(CN1C(=O)c2ccccc2C1=O)Nc1cc([N+](=O)[O-])ccc1O	1%	-7	-16%	-0.2%
CCOc1ccccc1CNCCNCC(C)O (stereo not given)	-3%	-9	-12%	-2.2%
C#CCOCCOCCOCCNc1nc(N2CCN(C(=O)[C@H]([C@@H](C)CC)n3cc(CCC(=O)O)nn3)CC2)nc(N2CCN(C(=O)[C@H](Cc3ccc(O)cc3)n3cc(CCO)nn3)CC2)n1	x	x	-14%	-1.0%
CC(=O)OCC(=O)[C@@]1(O)CC[C@H]2[C@@H]3CCC4=CC(=O)C=C[C@]4(C)[C@@]3(Cl)[C@@H](Cl)C[C@@]21C	-24%	7	-13%	0.4%
O=C(CCCCCNc1nc(=S)[nH]c2ccccc12)NCCc1c[nH]c2ccccc12	0%	-6	13%	-3.1%
Cc1ccc(/C=C2/SC(=Nc3ccc(F)cc3)NC2=O)s1	-5%	x	-5%	-1.7%
CCOC(=O)CSc1nnc2c3ccccc3n(C)c2n1	-9%	x	-4%	-0.3%
Cc1ccc(S(=O)(=O)CCC(=O)OCC(=O)c2c(C)[nH]c3ccccc23)cc1	-5%	-3	-6%	-0.9%
O=c1[nH]cnc2c1C(c1ccc(Cl)cc1)c1c(nc[nH]c1=O)O2	2%	x	10%	0.3%
C/C(=N\N)c1c(-c2ccccc2)c2cc(Br)ccc2[nH]c1=O	1%	5	-9%	7.3%
Nc1cc(N)c(OCC(F)(F)F)cc1OCC(F)(F)F	2%	-7	0%	-0.5%
CS(=O)(=O)Nc1cccc(C(=O)CC2(O)C(=O)Nc3ccc(Br)cc32)c1 (stereo not given)	18%&7%	-11&-18	-16%	0.3%
Cn1c(=O)[nH]c(=O)c2c1nc(N1CCOCC1)n2CCSc1nc2ccccc2[nH]1	-4%	-19	12%	-4.5%
O=C1/C(=C\c2cccs2)SC(=S)N1C1CCS(=O)(=O)C1 (stereo not given)	-3%	-6	4%	0.3%
CCOC(=O)c1cn2nc(Oc3cccc(F)c3)ccc2n1	-26%	-11	17%	0.0%
C[C@@H](NC(=O)c1nc[nH]c1C(=O)N1CCN(c2ccccc2)CC1)c1ccccc1	x	x	4%	3.8%
CCCCNC(=O)C1CCC(CNS(=O)(=O)c2cccc3nsnc23)CC1 (stereo not given)	0%	x	-4%	-1.2%
Cn1c(=O)c2c(nc(NCc3ccco3)n2Cc2ccc(Cl)cc2Cl)n(C)c1=O	-6%	-9	-9%	-2.3%
O=C(CN1CCOCC1)Nc1ccc(S(=O)(=O)NC2CCCCC2)cc1	-22%	-4	-16%	-0.6%
COc1ccc(C2OC34CCCCC3C(C#N)(C#N)C2(C#N)C(=N)O4)cc1 (stereo not given)	0%	28	u	u
COc1ccc(C2C(O)C(c3c[nH]c4ccccc34)=NN2C(=O)CCl)cc1 (stereo not given)	u	x	6%	u
CCOC(=O)c1oc2nc(CC(C)C)c3c(c2c1N)CCC3	-6%	10	-2%	3.0%
O=C(O)COc1ccccc1/C=N/NC(=O)/C(=C\c1ccc2c(c1)OCO2)NC(=O)c1ccccc1	-2%	-5	u	u
COc1cc(NC(=S)Nc2cccnc2)cc(OC)c1	-3%	9	-5%	-1.6%
CCOc1ccccc1C(=O)Nc1nnc(CC)s1	-40%	-13	20%	1.1%
NC(=O)[C@@H]1CCCNc2c(I)cc([N+](=O)[O-])cc2C(=O)N[C@@H](CCCN=C(N)N)C(=O)N[C@@H](CCCN=C(N)N)C(=O)N1	0%	-4	x	x
Cc1ccccc1CN1CCC(n2nccc2NC(=O)CCOc2ccccc2)CC1	9%	x	-2%	-0.2%

Some of these compounds in order of their number in miR-21 FLuc, largest number first.
SMILES | miR-21 FLuc
O=c1[nH]cnc2c1C(c1ccc(Cl)cc1)c1c(nc[nH]c1=O)O2 | 2%
O=C(O)COc1ccccc1/C=N/NC(=O)/C(=C\c1ccc2c(c1)OCO2)NC(=O)c1ccccc1 | -2%
O=C1/C(=C\c2cccs2)SC(=S)N1C1CCS(=O)(=O)C1 (stereo not given) | -3%
O=C(CN1CCOCC1)Nc1ccc(S(=O)(=O)NC2CCCCC2)cc1 | -22%
O=C(CCN1C(=O)c2ccccc2C1=O)Nc1ccc(-c2nc3ccccc3s2)cc1 | -72%

Going on with the list.
SMILES	miR-21 FLuc	GLA inh pH 4.5	Rango dissoc inh	Rango-impB inh
Cc1ccc(N2CCN(C(=O)c3ccccc3Br)CC2)c(C)c1	2%	3	-2%	3.1%
CCOc1cc(Br)c(C(C)NC(=O)c2cccnc2)cc1OCC (stereo not given)	x	x	11%	-5.9%
COCC1CCCCN1C(=O)c1ccc2nc(Cc3ccc(OC)c(OC)c3)oc2c1 (stereo not given)	1%	x	-7%	-1.6%
COc1ccccc1C1(O)C(=O)Nc2ccccc21 (stereo not given)	0%	x	-1%	-0.7%
C=CCn1nc([N+](=O)[O-])nc1Sc1cccc2cccnc12	u	-1	5%	-2.2%
NC(=O)CC(NC(=O)c1cccc(Br)c1)c1ccc(N2CCC(Br)CC2)c([N+](=O)[O-])c1 (stereo not given)	11%	x	8%	-3.0%
CCOC(=O)c1cnc(SC)nc1N	-19%	2	-6%	-0.3%
c1ccc(-c2c[n+]3c(n2-c2ccccc2)CCC3)cc1	20%	2	-8%	0.9%

5 compounds picked at random from those above, as already listed:
SMILES	miR-21 FLuc	GLA inh pH 4.5	Rango dissoc inh	Rango-impB inh
COc1ccccc1C1(O)C(=O)Nc2ccccc21 (stereo not given)	0%	x	-1%	-0.7%
NC(=O)CC(NC(=O)c1cccc(Br)c1)c1ccc(N2CCC(Br)CC2)c([N+](=O)[O-])c1 (stereo not given)	11%	x	8%	-3.0%
Cc1ccc(N2CCN(C(=O)c3ccccc3Br)CC2)c(C)c1	2%	3	-2%	3.1%
CCOc1cc(Br)c(C(C)NC(=O)c2cccnc2)cc1OCC (stereo not given)	x	x	11%	-5.9%
COCC1CCCCN1C(=O)c1ccc2nc(Cc3ccc(OC)c(OC)c3)oc2c1 (stereo not given)	1%	x	-7%	-1.6%
